Calb FLC: C. albicans growth inhibition with fluconazole, primary screen, CaCi-2 strain, Alamar Blue fluorescence; growth inhibition, % (no concentration beside the values); C. albicans CaCi-2 (fluconazole-resistant clinical isolate) + fluconazole, 48 h; actives 0.57% (n = 300,000);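 active = most replicates above 75%; inconclusive = exactly half above 75%; inactive = most below 75%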;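 note: all wells also contain fluconazole at 8 µg/ml as a sub-toxic cotreatment; 0% = median of DMSO wells and 100% = median of geldanamycin control wells; wells of about 8 µL received 7.5 nL stock; the first replicate is given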
Bfl-1 A1 inh: caspase 3/7 activation in MEF A1-2A-BIM cells, primary screen, A1 inhibitor project, cell-based, luminescence, HTS; caspase activation, % (no concentration beside the values); Caspase-Glo 3/7 luminescence, 3 h; percent of clofoctol response, vehicle zero; actives 0.066% (n = 330,000);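 active = over half of replicate activation scores above 10%, or exactly half above 10 with the replicate mean above 10; inconclusive = replicate mean below 10 yet half the replicates above 10; inactive = over half of replicates below 10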;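 note: wells of about 30 µL received 50 nL stock; many hits fall short of the cut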
T cruzi inh: inhibitors of intracellular T. cruzi growth, primary screen, luminescence, NIH3T3 host cells; T. cruzi beta-gal in NIH3T3, 90 h; inhibition, % (no concentration beside the values); actives 1.4% (n = 300,000);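 active = mean inhibition across valid replicates above about 55%, limit read from the data; inconclusive = mean below that limit but half or more replicates reach it; inactive = mean below it, under half of replicates reach it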;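 note: signal also drops with host cell toxicity which is not excluded here; 0% = plate median of DMSO wells and 100% = zero luminescence signal; higher percent means less beta-gal luminescence so fewer parasites; stock transfer was 50 nL into about 50 µL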
AF4-AF9 inh: inhibitors of AF4 peptide binding to AF9, primary screen, biochemical, AlphaScreen, biotin-AF4 peptide, FLAG-AF9, single point; Protein AF-9 (Homo sapiens), P42568; inhibition, % at 10 µM; actives 0.47% (n = 350,000); AID 651704, 2012;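 active = every replicate reaching a set inhibition limit, whatever the replicate mean, cut at about 25% in these data; inconclusive = mean inhibition reaches that limit but some replicates miss it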;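 note: 0% = plate neutral control median and 100% = total signal loss; the record names both 10 and 1 µM as test concentration; the first replicate is given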
Target sequence (P42568 whole entry, looked up): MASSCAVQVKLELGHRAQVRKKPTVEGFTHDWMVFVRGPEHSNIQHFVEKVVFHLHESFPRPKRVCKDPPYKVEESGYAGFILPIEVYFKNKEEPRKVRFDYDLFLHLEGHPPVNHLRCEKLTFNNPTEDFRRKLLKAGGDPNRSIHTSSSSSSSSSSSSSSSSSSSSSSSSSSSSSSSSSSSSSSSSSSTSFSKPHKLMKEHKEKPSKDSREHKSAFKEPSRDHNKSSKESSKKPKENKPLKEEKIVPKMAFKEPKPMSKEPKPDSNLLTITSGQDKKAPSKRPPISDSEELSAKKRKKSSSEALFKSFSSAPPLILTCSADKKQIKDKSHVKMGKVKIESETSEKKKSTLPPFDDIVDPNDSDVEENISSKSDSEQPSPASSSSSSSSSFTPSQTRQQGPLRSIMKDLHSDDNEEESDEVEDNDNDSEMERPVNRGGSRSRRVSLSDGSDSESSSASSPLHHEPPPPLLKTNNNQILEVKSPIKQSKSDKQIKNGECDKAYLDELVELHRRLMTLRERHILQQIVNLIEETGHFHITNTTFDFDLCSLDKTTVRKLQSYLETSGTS
Beta cell apopt: inhibitors of cytokine-induced beta cell apoptosis, primary screen, luminescence; INS-1E cytokine-induced death, ATP luminescence, 48 h; percent of positive-control rescue, neutral wells zero; protection from apoptosis, % (no concentration beside the values); actives 0.8% (n = 300,000);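 active = all replicates at 75% or more, or half of them and the mean; inconclusive = half reach 75% but not the mean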;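 note: 0% = cytokine-treated negative control wells and 100% = positive control rescue; higher means more ATP so stronger rescue from cytokine killing; wells of about 40 µL received 100 nL stock; the first replicate is given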
LANA-H2B inh: blockers of LANA interaction with H2A/H2B – biochemical, FP readout, HTS, primary screen. Protein LANA1 (Human herpesvirus 8 type P (isolate GK18)), Q9QR71. cell-free LANA-H2A/H2B peptide, fluorescence polarization. inhibition, % (no concentration beside the values). actives 0.6% (n = 320,000). AID 2629, 2010; in the data active = inhibition mostly above about 10%, no sharp cut-off; inactive = mostly below about 6.7%;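 note: stock transfer was 7.5 nL into about 10 µL; 0% = median of vehicle wells and 100% = median of positive control wells; one replicate is shown; the record names a cut of 25% in any replicate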
RanGTP-Imp inh: inhibitors of RanGTP-importin-beta interaction, primary screen, biochemical, FRET, CFP-Ran, YFP-importin-beta, homogeneous; inhibition, % (concentration not given with the values); Ran GTPase (GTP-bound) - importin-beta complex; actives 1.1% (n = 300,000); AID 2216, 2009; cell-free CFP-Ran/YFP-importin-beta FRET ratio;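 active = most replicates above 15%; inconclusive = exactly half above 15%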;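 note: 0% = DMSO wells and 100% = Ran loaded with GDP instead of GTP; wells of about 40 µL received 100 nL stock; the first replicate is given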
Vif TR-FRET: inhibitors of Vif binding to APOBEC3G peptide, primary screen, biochemical, TR-FRET, GST-Vif 1-94, biotin-A3G peptide, dose response retest (AID 1117319); Virion infectivity factor (Human immunodeficiency virus type 1 group M subtype B (isolate …; TR-FRET GST-Vif / biotin-A3G peptide binding; higher % means a stronger effect; test concentration not given here; strong numbers were not always called active; inhibition, %; hits with a dose series show IC50 in µM; actives 0.57% (n = 260,000);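 active = above the screen mean plus three standard deviations and confirmed in dose response; inconclusive = results disagree or hit not tested in dose response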;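 note: Vif residues 1-94 fused to GST binding biotinylated APOBEC3G peptide 110-148; 0% = full assay without inhibitor and 100% = GST in place of GST-Vif; retest series ran down from 100 µM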
* hit, by the source's call; ? = inconclusive; / = no result given.

1	CCCCN=C1C([N+](=O)[O-])=CC=C2C1=NC1(CCCCC1)N2O
2	O=C(CNC(=O)Cc1ccc(Cl)cc1)NCc1ccco1
3	CC1CC(=S)Nc2ccccc2S1 (stereo not drawn)
4	CC(=O)Nc1cc(-n2cnnn2)ccc1C
5	C/C(=N\NC(=O)CSc1nc(C)cc(C)n1)c1cccc([N+](=O)[O-])c1
6	COc1ccc(-n2c(SCC(=O)NCCC(C)C)nc3ccsc3c2=O)cc1
7	Cc1ccc(-c2ccc(SCC(=O)Nc3nonc3C)nn2)cc1
8	O=C(Cc1ncc(C(F)(F)F)cc1Cl)NCCc1ccccc1
Compound,1,2,3,4,5,6,7,8
Calb FLC,9,6,-16,-4,3,-2,-21,-4
Bfl-1 A1 inh,-0.1,0.2,-0.4,-0.3,0.2,-0.4,0.1,0.4
T cruzi inh,7,-6,-16,-20,8,10,-13,1
AF4-AF9 inh,/,0.1,/,0.7,1.3,/,/,-3.8
Beta cell apopt,-3,0,-6,/,-5,-1,-5,-4
LANA-H2B inh,0.8,-4.6,0.3,-1.9,4.0,0.7,4.5,7.1
RanGTP-Imp inh,-3.9,-1.4,2.8,1.8,-1.0,2.6,-3.8,1.5
Vif TR-FRET,16%,-10%,-3%,8%,/,-2%,-8%,11%

9	CCn1c(CCNC(=O)c2ccc(OC)cc2)nnc1SCc1ccc(Cl)cc1Cl
10	CCCn1c(SCC(=O)N(CC)CC)nnc1-c1ccncc1
11	OCC1(CCOc2ccccc2)CCN(Cc2cc(Cl)ccc2O)CC1
12	Cc1ccc(NC(=S)NCc2ccc(F)cc2)c(C)c1
13	O=C(CSc1nc(-c2ccco2)cc(C(F)(F)F)n1)Nc1cccnc1
14	CCOc1c2ccc(C(=O)NCCCCc3ccccc3)cc2nn1C
15	O=S(=O)(c1ccc(Cl)c(Cl)c1)N1CCc2nc3ccccc3n2CC1
16	CN1CCC(=NNC(=O)COc2ccc(Cl)cc2)CC1
Compound,9,10,11,12,13,14,15,16
Calb FLC,-2,-11,-12,-50,1,-18,1,-37
Bfl-1 A1 inh,-0.3,1.2,-1.7,0.1,-0.4,-0.7,/,-0.2
T cruzi inh,15,-9,-2,-16,-9,-13,0,-9
AF4-AF9 inh,/,-3.7,-2.5,1.6,/,5.1,/,-0.5
Beta cell apopt,2,-4,-2,/,-3,-4,/,0
LANA-H2B inh,6.8,0.0,1.8,-3.6,-0.1,2.7,/,-2.7
RanGTP-Imp inh,-7.6,5.7,7.1,-1.3,-2.9,?,-0.4,1.2
Vif TR-FRET,0%,-3%,/,/,0%,-7%,0%,-2%

17	Cc1ccccc1N1CCN(C(=O)c2cc(C3CC3)nn2-c2ccccc2)CC1
18	CCSc1nc2ccccc2n1CC(=O)O
19	O=C(COC(=O)C1CC1)NCc1ccccc1Cl
20	CN(C)S(=O)(=O)N1CCC(Oc2cccc(C(=O)NCCCC3CCCC3)c2)CC1
21	CCCC(=O)Nc1ccc(NC(=O)c2ccccn2)cn1
22	O=C1C=C(Nc2ccccc2C(=O)O)c2ccccc2C1=O
23	Cc1ccc(NC(=O)Nc2ccc3c(c2)OCO3)nc1
24	CCS(=O)(=O)c1ccc2oc(SCC(=O)NC34CC5CC(CC(C5)C3)C4)nc2c1
Compound,17,18,19,20,21,22,23,24
Calb FLC,/,30,-3,-3,4,41,-7,-24
Bfl-1 A1 inh,-0.7,-0.6,2.0,/,-11,-2.8,-1.9,-0.2
T cruzi inh,/,-9,-4,2,2,6,5,34
AF4-AF9 inh,-6.3,-1.2,/,-3.2,/,-15,-0.3,/
Beta cell apopt,-1,-1,/,/,/,8,-5,-4
LANA-H2B inh,-0.6,-1.6,4.1,/,39*,3.6,-6.7,-2.3
RanGTP-Imp inh,/,-0.9,-1.1,-0.1,4.3,6.9,1.7,-2.6
Vif TR-FRET,-4%,2%,0%,/,13%,21%,/,5%

One compound at a time (already shown). Order of screens: Calb FLC	Bfl-1 A1 inh	T cruzi inh	AF4-AF9 inh	Beta cell apopt	LANA-H2B inh	RanGTP-Imp inh	Vif TR-FRET
Results for O=C(COC(=O)C1CC1)NCc1ccccc1Cl = -3	2.0	-4	/	/	4.1	-1.1	0%
Results for Cc1ccc(NC(=O)Nc2ccc3c(c2)OCO3)nc1 = -7	-1.9	5	-0.3	-5	-6.7	1.7	/
Results for CN(C)S(=O)(=O)N1CCC(Oc2cccc(C(=O)NCCCC3CCCC3)c2)CC1 = -3	/	2	-3.2	/	/	-0.1	/

(continued)
25	Cc1cccc(C(C)(C)C)c1OCCOCCN1CCCC1
26	O=C(CCNc1ccccc1)c1ccc2c(c1)OCO2
27	COc1ccc(N(CC(=O)NCCc2ccccc2)C(=O)c2csnn2)cc1OC
28	C/C(=N\NC(=O)c1ccc(N2CCCC2=O)cc1)c1ccccc1
29	Cc1nc2ncccn2c1-c1csc(NCc2ccco2)n1
30	C/C=C(/C)C(=O)Nc1cccc(C2=NOC3(C2)C[C@@H](C(N)=O)N(C(=O)CC(c2ccccc2)c2ccccc2)C3)c1 (stereo partly drawn)
31	COc1ccc(OC)c2c1sc(=NC(=O)c1ccco1)n2C
32	O=C1c2ccccc2C(=O)N1CCCc1nc(-c2ccccc2)no1
Compound,25,26,27,28,29,30,31,32
Calb FLC,-19,-18,0,-2,-3,13,22,-10
Bfl-1 A1 inh,-0.5,-2.0,0.1,-0.2,0.8,1.0,0.0,-0.7
T cruzi inh,18,-2,-16,-6,-7,12,28,-2
AF4-AF9 inh,/,/,-1.6,-1.2,/,-6.2,-3.9,0.6
Beta cell apopt,-4,2,-5,2,-4,-4,12,-2
LANA-H2B inh,4.5,0.8,-1.0,2.5,6.2,-8.7,6.1,-3.8
RanGTP-Imp inh,0.5,0.3,3.7,-5.1,-2.7,-5.1,-6.7,-3.2
Vif TR-FRET,0%,8%,/,/,1.2µM*,24%,-12%,?

33	COc1ccc(C(C)=O)cc1COC(=O)c1cccnc1Cl
34	Cc1nc2cc(-c3ccccc3)sc2c(=O)n1N
35	CC1(C)SC[C@H](C(=O)Nc2cccc(Cl)c2)N1C=O
36	O=C1NCCN1Cc1ccc(F)cc1
37	COCCCn1c(=O)c2sccc2n2c(CCCC(=O)NCc3ccc(OC)cc3)nnc12
38	COCCCNc1oc(/C=C/c2ccccc2)nc1C#N
39	CCOc1ccc(NS(=O)(=O)c2ccc3[nH]c(=O)[nH]c3c2)cc1
40	O=[N+]([O-])c1ccc(Cc2ccccn2)cc1
Compound,33,34,35,36,37,38,39,40
Calb FLC,-3,-2,-2,-13,-16,-4,-12,/
Bfl-1 A1 inh,-1.1,0.3,0.3,0.1,-1.0,-5.7,0.9,0.0
T cruzi inh,-9,4,8,8,-12,-1,-9,/
AF4-AF9 inh,-6.0,1.3,-0.8,/,0.5,-7.2,-3.3,0.0
Beta cell apopt,/,?,-1,-7,-4,0,-3,-5
LANA-H2B inh,6.8,2.7,-2.1,4.8,3.3,0.5,-0.6,0.4
RanGTP-Imp inh,-3.3,1.2,0.0,4.2,-2.0,-1.3,0.0,/
Vif TR-FRET,/,-3%,-2%,3%,-1%,-5%,/,-4%

41	Oc1ccc(N2Cc3ccccc3C2)cc1
42	CCc1nnc(SCC(=O)Nc2ccc(NC(C)=O)cc2)n1-n1cccc1
43	Cc1ccc(S(=O)(=O)NC(CC(=O)N2CCc3ccccc32)c2ccco2)cc1 (stereo not drawn)
44	Fc1ccc(-c2cn3cc(C(F)(F)F)cc(Cl)c3n2)cc1
45	O=C(NN1C(=O)NC2(CCCCC2)C1=O)c1cccs1
46	C=CCOC(=O)C1=C(C)Nc2[nH]c(=O)[nH]c(=O)c2C1c1cccc(OC)c1 (stereo not drawn)
47	Cc1ccc(N2CCN(S(=O)(=O)c3cccs3)CC2C)cc1 (stereo not drawn)
48	CCOCCOC(=O)C1=C(C)NC(=O)NC1c1ccc2c(c1)OCO2 (stereo not drawn)
Compound,41,42,43,44,45,46,47,48
Calb FLC,13,-2,1,?,/,-7,22,1
Bfl-1 A1 inh,0.3,1.7,0.9,-5.7,-0.1,/,0.6,0.3
T cruzi inh,4,-1,2,-3,/,-11,15,-10
AF4-AF9 inh,/,1.5,/,/,1.6,/,2.3,3.6
Beta cell apopt,/,/,2,-1,-2,/,8,/
LANA-H2B inh,0.9,-1.3,-4.3,-4.7,0.7,/,0.2,-0.9
RanGTP-Imp inh,5.3,?,-1.1,3.8,/,-0.6,3.0,-2.0
Vif TR-FRET,22%,1%,13%,5%,/,11%,1%,0%

49	CC1CCN(Cc2c(C(=O)N/N=C/c3ccccc3O)nnn2-c2nonc2N)CC1
50	Cn1cc(C(=O)NC2CCCCCC2)c(=O)c2cc(S(=O)(=O)N3CCCC3)ccc21
51	CC1Cc2ccccc2N1S(=O)(=O)c1cnc(Cl)c(Br)c1 (stereo not drawn)
52	COc1ccccc1-c1nnc(NC(=O)CSc2nncn2C)s1
53	CCOC(=O)c1c(NC(=O)COC(=O)CCOc2ccc(OCC)cc2)sc(C(=O)N(C)C)c1C
54	O=C(NCc1ccc2c(c1)OCO2)c1ccc(S(=O)(=O)NCC2CCCO2)cc1 (stereo not drawn)
55	COc1ccccc1N1CC(C(=O)OC(C)C(=O)N2CCCc3ccccc32)CC1=O (stereo not drawn)
56	CCS(=O)(=O)NCCc1ccc(OC)c(OC)c1
Compound,49,50,51,52,53,54,55,56
Calb FLC,7,2,2,-2,-2,8,0,-5
Bfl-1 A1 inh,0.2,0.4,-0.6,-3.7,-0.4,-0.3,-0.3,1.3
T cruzi inh,?,0,42,-12,7,-13,9,-8
AF4-AF9 inh,-5.5,/,-6.7,-2.5,/,/,/,/
Beta cell apopt,95*,-10,0,-6,-1,5,-6,-7
LANA-H2B inh,-1.2,-2.0,-1.7,3.4,3.5,-7.7,5.8,5.0
RanGTP-Imp inh,2.6,-2.0,3.8,4.5,1.4,3.2,-2.1,-0.9
Vif TR-FRET,/,-5%,-1%,-22%,-2%,-2%,-8%,?

57	CCN1CCN(C(=O)CN(c2cccc(Br)c2)S(=O)(=O)c2ccccc2)CC1
58	O=C(NCCC1CCCCN1S(=O)(=O)c1ccc(F)cc1)C(=O)NC1CCCC1 (stereo not drawn)
59	Cc1ccccc1-n1c(=O)c2ccccc2n2nnnc12
60	CCCCOC(=O)Nc1ccc(OC)cc1S(=O)(=O)N1CCOCC1
Compound,57,58,59,60
Calb FLC,23,-19,-5,11
Bfl-1 A1 inh,-0.1,0.3,0.0,0.0
T cruzi inh,-17,7,-6,-5
AF4-AF9 inh,6.1,-1.2,/,/
Beta cell apopt,3,-2,2,-3
LANA-H2B inh,-2.2,/,0.8,-0.6
RanGTP-Imp inh,3.5,-2.0,1.0,0.1
Vif TR-FRET,?,-1%,21%,-5%

Source: PubChem BioAssay (several laboratories)
